# Screening data deposited in PubChem by National Center for Advancing Translational Sciences (NCATS).
# HPGD inh: inhibitors of human 15-hydroxyprostaglandin dehydrogenase (HPGD); purified HPGD, NADH fluorescence kinetic, PGE2 substrate; actives 4.3% (n = 150,000); P15428; Potency, µM, without a hit: top-dose activity change, negative = inhibition, actives largely listed as inhibitors; active = well fitted inhibition curve with a large enough effect (not every such curve was filed as active); inconclusive = small, poorly fitted or top-dose-only effect, or another doubt; inactive = no such curve, though single readings can be large or run the other way;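 also: top concentration of the series not given in the record; plate controls included wells without enzyme; inactives centre near -10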
# Target sequence (P15428 whole entry, looked up): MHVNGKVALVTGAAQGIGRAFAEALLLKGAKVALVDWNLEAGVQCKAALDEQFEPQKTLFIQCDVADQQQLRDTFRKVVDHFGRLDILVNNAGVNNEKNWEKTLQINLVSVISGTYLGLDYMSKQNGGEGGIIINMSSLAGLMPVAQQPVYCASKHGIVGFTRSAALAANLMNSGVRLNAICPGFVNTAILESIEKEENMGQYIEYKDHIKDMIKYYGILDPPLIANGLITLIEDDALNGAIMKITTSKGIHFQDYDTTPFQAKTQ
#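 NADH formation kinetics: reaction with 30 uM PGE2 and 1 mM NAD+ (final), 20 nM enzyme, Tris-HCl pH 8 with Tween 20, after 15 min compound preincubation at room temperature. Fluorescence change, last versus first of five reads.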
# Starred values were filed as active, the others as inactive; ? = inconclusive. % is scaled to controls: 0 for no effect and ±100 for the full control effect; potency is read from the fitted curve at half-maximal effect. The list is partial; the hit share may differ from the screen's.
SMILES,HPGD inh
CCOC(=O)C1CCCN(C(=O)/C=C/c2ccccc2[N+](=O)[O-])C1 (stereo unspecified),-18.0%
O=C(Cn1nc(C(=O)O)c2ccccc2c1=O)NCCC1=CCCCC1,-24.1%
COc1ccc(Cl)cc1NC(=O)CS(=O)(=O)c1cccc2nsnc12,-6.2%
Cc1ccc(-c2nnn(CC(=O)N(c3ccccc3)C(C(=O)NCC3CCCO3)c3ccc(Cl)cc3)n2)cc1 (stereo unspecified),-5.0%
COc1ccc(CN2C(=O)CCC2(C)C(=O)NC2CCCC2)c(OC)c1 (stereo unspecified),-14.5%
Cc1nn(-c2ccccc2)c(Cl)c1C(=O)Nc1ccccc1,14.1µM*
Cc1ccc(S(=O)(=O)c2nc(Nc3ccccc3C#N)sc2Cl)cc1,-16.4%
Cc1onc(-c2ccccc2)c1C(=O)Nc1nc2c(s1)C(=O)CC(C)(C)C2,-9.3%
Cn1c(/C(C#N)=C(\O)c2ccc(S(=O)(=O)N3CCCCC3)cc2)nc2ccccc21,?
O=C(Nc1ccccc1)c1ccccc1CC[N+](=O)[O-],-17.3%
CC(=O)c1ccc(OCC(O)CN2CCN(CC(O)COc3ccc(C(C)=O)cc3)CC2)cc1 (stereo unspecified),-12.1%
NC(=O)c1ccc(NC(=O)COC(=O)CCCN2C(=O)c3cccc4cccc(c34)C2=O)cc1,?

# Rewritten as tab-separated lines: part of the list above
structure	HPGD inh
Cc1nn(-c2ccccc2)c(Cl)c1C(=O)Nc1ccccc1	14.1µM*
Cc1ccc(S(=O)(=O)c2nc(Nc3ccccc3C#N)sc2Cl)cc1	-16.4%
Cc1onc(-c2ccccc2)c1C(=O)Nc1nc2c(s1)C(=O)CC(C)(C)C2	-9.3%
Cn1c(/C(C#N)=C(\O)c2ccc(S(=O)(=O)N3CCCCC3)cc2)nc2ccccc21	?
O=C(Nc1ccccc1)c1ccccc1CC[N+](=O)[O-]	-17.3%
CC(=O)c1ccc(OCC(O)CN2CCN(CC(O)COc3ccc(C(C)=O)cc3)CC2)cc1 (stereo unspecified)	-12.1%

# (listing goes on)
SMILES,HPGD inh
O=C(Nc1ccccc1Cl)C1C2CCC3C(CCC21)C3(Cl)Cl (stereo unspecified),-0.2%
CCCn1c(NCCO)nc2ccccc21,-1.0%
N[C@@](CC(=O)O)(Cc1ccccc1)C(=O)O,-2.6%
COC(=O)c1sc(NC(=O)CSc2nnnn2-c2ccc(C)cc2C)nc1C,-12.2%
N#CCCCS(=O)(=O)c1ccccc1,-5.8%
Nc1nc(-c2cc(-c3cccc4ccccc34)nc(N)n2)cc(-c2cccc3ccccc23)n1,-4.7%
CCSC1(SCC)N=C(N)C2(C#N)C(c3ccccc3)NC(C)=C(C)C12C#N (stereo unspecified),-6.0%
O=C(O)CCC(=O)N1CCC(C(=O)c2cccc(Cl)c2)CC1,-6.7%
O=c1cc(N2CCOCC2)[nH]c(=O)n1-c1ccc(Br)cc1,3.0%
O=C1Nc2ccccc2C12Nc1ccccc1-c1nc3ccccc3n12 (stereo unspecified),-16.4%
COc1cccc(C(=O)Nc2cc3c(cc2Br)OCCCO3)c1,-9.0%
O=C(O)CSCCOc1ccc(OCCSCC(=O)O)cc1,-8.1%
O=C(NCc1ccc2c(c1)OCO2)c1ccc(CSCc2cccc(Cl)c2)o1,-22.9%
CCSc1nc2ccccc2n1CC(=O)N1CCOCC1,-7.8%
CCOc1ccc(CNc2ccc3c(c2)nc(C)n3C)cc1,-8.3%
CCOC(=O)C1=C(C)NC(C)=C(C(=O)OCC)C1c1cccs1,-11.4%
Cc1cccc(-c2nnc(SCc3cc(=O)[nH]c4ccccc34)n2C)c1,-3.0%
CC1(c2ccccc2)NC(=O)N(CCOc2ccccc2)C1=O (stereo unspecified),1.3%
COc1cccc(/C(O)=C2/C(=O)C(=O)N(Cc3cccnc3)C2c2ccco2)c1 (stereo unspecified),-9.5%
Cc1c(C(=O)OC2CCCCC2)sc2nc[nH]c(=O)c12,?
CC(C)(C)c1ccc(C(=O)NNC(=O)Cc2ccccc2)cc1,-9.9%
Cn1c(=O)c2c(nc(N3CCCCCC3)n2CC(O)COc2ccc(Cl)cc2)n(C)c1=O (stereo unspecified),-12.9%
Cc1cccc(COCC(CC(C)C)N2CCN(C(=O)c3ccc(C(C)(C)C)cc3)CCC2=O)c1 (stereo unspecified),-18.6%
O=C(c1noc2c1CCc1ccccc1-2)N1CCCc2ccccc21,-27.4%
CCOC(=O)c1[nH]c(C)c(C(=O)NCCCOC(C)C)c1C,-11.6%
CCOC(=O)N1CCN(c2ccc(C(=O)c3ccccc3)cc2F)CC1,28.2µM*
COC(=O)N1N=C(c2ccc(Br)cc2)CC1(O)C(F)(F)F (stereo unspecified),-7.9%
CCSc1ccccc1C(=O)n1nnc2ccccc21,-22.4%
Cc1cc(COc2ccccc2OCc2cc(C)no2)on1,-10.2%
O=C(c1cc2sccc2n1Cc1ccccc1)N1CCN(c2nc3ccccc3s2)CC1,-13.1%
C=CCNC(=S)NNC(=O)c1ccccc1,2.0%
CCOC(=O)c1oc2cc(OCC(N)=O)ccc2c(=O)c1-c1ccc(OC)c(OC)c1,-4.9%
O=C(NCCc1ccc(Cl)cc1)C1CCN(S(=O)(=O)N2CCC3(CC2)OCCO3)CC1,-3.3%
CCCCN(CCCC)C1=Nc2ccccc2N/C1=C(/C#N)C(=O)OCC,-12.9%
COc1ccccc1CCNS(=O)(=O)c1c(C)n(C)c(=O)n(C)c1=O,-2.4%
COc1cc(Cl)c(S(=O)(=O)NCCN2CCOCC2)cc1Cl,-6.6%
Cc1ccc(-c2csc3ncnc(SCC(=O)c4ccc5c(c4)OCCO5)c23)cc1,-13.6%
CSc1ccccc1C(=O)Nc1cccc(C)c1,-20.1%
CC(=O)Nc1nonc1NC(=O)CSc1nc2ccccc2o1,-18.3%
COc1cc(Cl)ccc1NC(=S)N(CCCN1CCOCC1)Cc1cn(C)c2ccccc12,?
CCCCc1nc2c(c3c1C[C@H](C)OC3)CN(C(=O)c1cccnc1)CC2,-18.5%
O=C(COC(=O)Cn1cnc2ccccc2c1=O)NCC12CC3CC(CC(C3)C1)C2,-2.8%
CSc1nc2ccccc2n1CC(=O)N1CCCCC1,-9.8%
Cc1cccc(-c2nnc(SCCC(=O)N3CCOCC3)o2)c1,-15.0%
CC(=O)N(C)c1nnc(-c2cnccn2)s1,-17.1%
C/C(=N\NC(=O)c1cc(C2CC2)nc2ccccc12)c1ccc(C)s1,-24.8%
O=C1CCN(C(=O)c2cccs2)c2ccccc21,-16.6%
COc1ccc(CC(=O)Nc2ccc(S(=O)(=O)Nc3ncccn3)cc2)cc1,-14.5%
CCn1nnnc1SCC(=O)Nc1ccc2c(c1)OCCO2,-10.5%
O=C(OCCN1C(=O)c2ccccc2C1=O)c1cnccn1,-10.7%
Cc1sc2nc(SCC(=O)OC(C)C)n(C)c(=O)c2c1C,-7.4%
CCOC(=O)N1CCN(C(=O)c2ccc(CN(c3ccc(C)c(C)c3)S(C)(=O)=O)cc2)CC1,-3.2%
Cc1cccc(NC(=O)CSc2nnc([C@@H]3CCCN3C(=O)OC(C)(C)C)o2)c1C,-8.1%
C=Cn1c(C(=O)O)cc(CC)c1-c1ccccc1,-5.3%
Nc1c(S(N)(=O)=O)cc(S(N)(=O)=O)cc1S(N)(=O)=O,-5.4%
COc1ccc(S(=O)(=O)N2CCC(C(=O)NCCc3ccccc3)CC2)cc1OC,-6.2%
O=C(/C=C/c1ccccc1)c1cc(Br)ccc(=O)c1O,20µM*
CCOc1ccc(OCc2cccc(C(=O)N3CCOCC3)c2)cc1,-2.2%
CCC1CCCCN1S(=O)(=O)c1ccc(C(=O)Nc2nnc(-c3cccs3)o2)cc1 (stereo unspecified),-9.6%
CCCC[C@@H](NC(=O)[C@@H](Cc1cn(C(=O)OC)c2ccccc12)NC(=O)[C@H](CC(C)(C)C)NC(=O)N1[C@H](C)CCC[C@@H]1C)C(=O)O,-0.1%

# Entries listed above printed as active in HPGD inh:
SMILES,HPGD inh
Cc1nn(-c2ccccc2)c(Cl)c1C(=O)Nc1ccccc1,14.1µM*
CCOC(=O)N1CCN(c2ccc(C(=O)c3ccccc3)cc2F)CC1,28.2µM*
O=C(/C=C/c1ccccc1)c1cc(Br)ccc(=O)c1O,20µM*

# The results go on:
SMILES,HPGD inh
COC(=O)C1=C(C)N(c2ccc(S(N)(=O)=O)cc2)C(=O)C1,-10.6%
COc1ccc(-c2nnn(Cc3ccccc3F)n2)cc1,-12.2%
Cc1ccnc(N2CCCC(C(=O)NCc3cccs3)C2)n1 (stereo unspecified),-24.4%
CCOC(=O)c1[nH]c(C)c(C(=O)NCC2CCCO2)c1C (stereo unspecified),-19.0%
Cc1ccc(NP(=O)(c2ccc(N(C)C)cc2NC(=O)c2cccs2)N2CCOCC2)cc1Cl (stereo unspecified),?
CC1(OC(=O)c2ccc(Cl)nc2)C(=O)C=C2C=C(C3CC3)OC=C2C1=O (stereo unspecified),-1.7%
CCCn1c(=O)c2ccccc2n2c(SCCOc3ccc(C)cc3)nnc12,-26.3%
Cc1ccc(OCC(=O)N2CCc3ccccc32)cc1,-11.9%
COc1cc(/C=C2/SC(=NCc3ccccc3)N(Cc3ccccc3)C2=O)ccc1O,-25.7%
CCC(CC)n1[nH]c(=O)c2c(C)cc(C)nc21,-6.3%
O=C1c2cccc3cccc(c23)C(=O)N1c1nncs1,?
CCOC(=O)C1=C(N)N2C(=O)C(C)SC2=C(C(=O)OC)C1c1cccc(OC)c1 (stereo unspecified),-3.3%

# Entries shown so far containing a furan ring, fused or not, in the order listed:
SMILES,HPGD inh
O=C(NCc1ccc2c(c1)OCO2)c1ccc(CSCc2cccc(Cl)c2)o1,-22.9%
COc1cccc(/C(O)=C2/C(=O)C(=O)N(Cc3cccnc3)C2c2ccco2)c1 (stereo unspecified),-9.5%

# Further compounds:
SMILES,HPGD inh
C/C=C/c1ccc(OCC(=O)OCc2csc(Nc3ccc(C)cc3)n2)c(OC)c1,-14.3%
C#CCn1c(=NC(=O)CN2C(=O)CCC2=O)sc2cc(S(N)(=O)=O)ccc21,-7.1%
CCCCCC(=O)Nc1nnn(CCC)n1,-20.9%
COc1ccc(-c2cc(C(=O)Nc3cc(C)n(Cc4ccc(Cl)cc4)n3)no2)cc1OC,?
COc1ccc(C(=O)N2CCC(C(=O)Nc3ccccc3OC)CC2)cc1,-3.9%
CN(C)/C=N/c1cnc(C(=O)c2ccc(Cl)cc2)n1C,15.8µM*
NC(=O)COc1ccc2c3c(c(=O)oc2c1)CCCCC3,?
Cn1cnc([N+](=O)[O-])c1Sc1ncccc1N,-18.8%
C=CCn1c(O)c(C(CC)=NCc2cccnc2)c(=O)[nH]c1=O,-12.7%
Cc1ccc2c(c1)c(CC(=O)Nc1ccc(F)cc1)c(C(=O)O)n2C,?
O=C(c1ccc(COc2ccccc2[N+](=O)[O-])o1)N1CCCCCC1,25.1µM*
Cn1nc(C(F)(F)F)c(C(=O)Nc2cccc(Cl)c2)c1Cl,-3.8%
O=c1cc(NCc2ccco2)c2ccccc2o1,-15.2%
CCc1c(C)sc(NC(=O)C2CC2)c1C(=O)OC(C)C,-9.3%
CCOC(=O)Cc1csc(NC(=O)c2csc3c2CCCC3)n1,?
C=CCOc1c(CNc2cccc(C(=O)O)c2)cccc1OC,?
CCC(=O)Nc1c(C)n[nH]c1C,-8.9%
Cc1nc(NCCc2ccc(S(N)(=O)=O)cc2)c2c3c(sc2n1)CCC3,-9.4%
O=C(CSc1ccccc1)Nc1ccc(-c2nc3ccccc3[nH]2)cc1,?
CN(C)c1ccc(NC(=O)/C=C/c2ccccc2Cl)cc1,-10.7%

# Of the compounds above, eight have a COOH group.
SMILES,HPGD inh
O=C(Cn1nc(C(=O)O)c2ccccc2c1=O)NCCC1=CCCCC1,-24.1%
N[C@@](CC(=O)O)(Cc1ccccc1)C(=O)O,-2.6%
O=C(O)CCC(=O)N1CCC(C(=O)c2cccc(Cl)c2)CC1,-6.7%
O=C(O)CSCCOc1ccc(OCCSCC(=O)O)cc1,-8.1%
C=Cn1c(C(=O)O)cc(CC)c1-c1ccccc1,-5.3%
CCCC[C@@H](NC(=O)[C@@H](Cc1cn(C(=O)OC)c2ccccc12)NC(=O)[C@H](CC(C)(C)C)NC(=O)N1[C@H](C)CCC[C@@H]1C)C(=O)O,-0.1%
Cc1ccc2c(c1)c(CC(=O)Nc1ccc(F)cc1)c(C(=O)O)n2C,?
C=CCOc1c(CNc2cccc(C(=O)O)c2)cccc1OC,?
